Screening data: PubChem, several laboratories
CSC inhib – cancer stem cell inhibition | 1.1% of 300,000 active | inhibition, % at 7.5 µM | cancer stem cell-like cells viability, luminescence;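 active = mean at 75% or more and at least half the replicates too; tested in HMLE shEcad cells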;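 also: 0% = median of negative and 100% = median of positive control wells; the first replicate is given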
PABP FP inh – blocks human PABP binding to poly(A) RNA; P11940; fluorescence polarization; inhibition, % at 35 µM; 1% of 290,000 active;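 active = 50% or more with normal probe brightness, or confirmed in later tests; about a fifth of its hits are not listed in these tables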;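 also: calls also rest on retests at 20 µM and on dose response follow-up; controls were probe without protein and protein plus probe with vehicle; some compounds called inactive have numbers as strong as hits; many hits fall short of the cut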
Target sequence (P11940 whole entry, looked up): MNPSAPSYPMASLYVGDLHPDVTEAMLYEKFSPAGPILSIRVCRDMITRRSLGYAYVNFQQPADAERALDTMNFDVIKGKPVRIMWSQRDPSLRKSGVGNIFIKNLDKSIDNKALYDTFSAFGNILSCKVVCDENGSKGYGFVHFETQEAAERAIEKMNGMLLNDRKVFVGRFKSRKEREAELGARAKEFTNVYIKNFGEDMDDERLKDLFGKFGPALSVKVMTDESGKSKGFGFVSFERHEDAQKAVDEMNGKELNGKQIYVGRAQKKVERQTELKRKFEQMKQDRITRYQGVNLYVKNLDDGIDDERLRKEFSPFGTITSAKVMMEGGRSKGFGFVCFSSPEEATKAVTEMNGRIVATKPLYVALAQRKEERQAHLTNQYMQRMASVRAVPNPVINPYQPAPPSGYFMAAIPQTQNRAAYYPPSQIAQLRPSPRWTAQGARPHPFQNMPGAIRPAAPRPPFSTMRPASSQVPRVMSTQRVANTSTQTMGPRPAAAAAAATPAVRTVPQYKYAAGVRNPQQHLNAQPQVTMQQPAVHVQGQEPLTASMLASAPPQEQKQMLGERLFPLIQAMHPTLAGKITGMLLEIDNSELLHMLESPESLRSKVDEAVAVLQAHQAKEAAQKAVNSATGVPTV
eIF4H FP inh – inhibitors of RNA binding by human eIF4H; Q15056; inhibition, % at 35 µM; 0.94% of 290,000 active; eIF4H fluorescence polarization binding assay;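 active = 50% or more with normal probe brightness, or confirmed in later tests; about a fifth of its hits are not listed in these tables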;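 also: calls also rest on retests at 20 µM and on dose response follow-up; 0% = protein and probe with vehicle and 100% = probe without protein; strong numbers were not always called active; many hits fall short of the cut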
MT1-MMP act inh – blocks activation of human MT1-MMP; AID 651647; HT1080 RFP-PRO-GFP cells, GFP/RFP ratio fluorescence, overnight; percent of plate control window, DMSO zero; GFP/RFP ratio change, % at 20 µM; 0.061% of 360,000 active;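 active = GFP/RFP ratio change of at least 30% with cell ATP level not reduced by more than half and red fluorescence within 50% of control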; also: strong numbers were not always called active
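Assay system – RFP-PRO-GFP reporter HT1080 cells · Compound dosing – single dose of 20 µM compound, 1% DMSO final · Incubation – overnight compound exposure at 37 °C · Measure – GFP/RFP fluorescence ratio · Benchmarks – DMSO wells and RFP-L50D-GFP cells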
Yeast UUG start – alters start codon recognition fidelity in yeast; S. cerevisiae UUG-firefly luciferase reporter, luminescence/redox ratio; activity score, % at 18.7 µM; 0.13% of 350,000 active; AID 602363;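 active = replicate mean at a twofold rise or more, about +100% in these data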;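 also: firefly luciferase made from a UUG start codon reports start codon fidelity; reporter light over untreated wells divided by growth signal over untreated wells; some hits fall short of that in this replicate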
HIV Env fusion – inhibitors of HIV Env-mediated cell fusion | HeLa-JRFL Env/CEM21 cell fusion, luciferase | inhibition, % at 12.3 µM | 1.1% of 360,000 active;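 active = mean replicate inhibition score of at least 50 and every replicate individually at or above 50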;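 also: 0% = plate neutral controls and 100% = maraviroc near 300 nM; one replicate is shown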
Rce1 inh – inhibitors of yeast Ras-converting enzyme; Q03530; yeast membranes, quenched prenylated peptide cleavage fluorescence; calls only; 0.27% of 290,000 active; AID 2563;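 active = fall in fluorescence gain of 50% or more versus controls, with final raw signal at or below 3038400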;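 also: plate controls were neutral control wells for no effect and wells lacking membranes for full effect; tested at 10 µM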
MT1-MMP act inh RFP – recorded beside MT1-MMP act inh, whose call it bears; RFP signal change, %; measured here: RFP expression control read;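 0 = vehicle wells; hits needed this value within 50% of zero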
An asterisk follows results filed as active; i = inactive; · = no result given; & = joins results of further samples; [ ] = dose if it differs, or a comment. An excerpt. The share of hits here may be higher or lower than overall.

1) Cc1ccc(N(C(C)C(=O)O)S(=O)(=O)c2cccnc2)cc1 (stereo not given)
2) CC1(C)CC[C@]2(C(=O)O)CC[C@]3(CO)C(=CCC4[C@@]5(C)C[C@H](O)[C@H](O)[C@@](C)(C(=O)O)C5CC[C@]43C)[C@@H]2C1 (stereo not given in full)
3) c1ccc(OCCSc2nnc3sc4ccccc4n23)cc1
4) O=C1CCC(=O)N1c1nc2nc(-c3ccccc3)cc(-c3ccccc3)n2n1
5) CC(=O)N1N=C(c2ccc(Br)cc2)CC1c1cccc([N+](=O)[O-])c1 (stereo not given)
6) O=C(CN(C(=O)Cn1nnc(-c2cccs2)n1)c1cnc2ccccc2c1)NCC1CCCO1 (stereo not given)
7) CC1(C)NC(=O)N(CC(O)CN(c2ccccc2)S(=O)(=O)c2ccc([N+](=O)[O-])cc2)C1=O (stereo not given)
8) O=C(CCOc1ccccc1)Nc1cccc(S(=O)(=O)Nc2ccccc2Cl)c1

Assay by compound,1,2,3,4,5,6,7,8
CSC inhib,-18,3,·,0,·,4,-6,14
PABP FP inh,-1,·,2,-1,·,-4,-10,3
eIF4H FP inh,-6,·,1,3,·,0,4,-10
MT1-MMP act inh,0,1,0,5,4,4,-2,-1
MT1-MMP act inh RFP,6,3,-2,3,-7,6,1,-4
Yeast UUG start,-12,-12,-70,-13,-16,-5,-8,·
HIV Env fusion,-14,22,·,3,-34,·,1,12
Rce1 inh,i,·,i,i,·,i,i,i

9) C[C@H](CO)N1C[C@H](C)[C@@H](CN(C)C(=O)Nc2ccc3c(c2)OCO3)Oc2ccc(NS(=O)(=O)c3ccc(F)cc3)cc2C1=O
10) COCCNc1oc(-c2ccc(C)cc2)nc1C#N
11) Cn1c(N2CCOCC2)nc2c1c(=O)n(Cc1ccc(Cl)c(Cl)c1)c(=O)n2C
12) CCc1nnc(NS(=O)(=O)c2ccc(NC(=S)NC(=O)c3ccc(OC)cc3)cc2)s1
13) Cc1cc(SCC(=O)Nc2cccnc2Cl)nc2ccccc12
14) CC(=O)c1ccc(NC(=S)N2CC(C)CC(C)C2)cc1 (stereo not given)
15) COc1ccc(Cl)cc1NC(=O)CN(C)CC(=O)Nc1c(C)n(C)n(-c2ccccc2)c1=O
16) O=C1CSC(=NC(=O)c2ccccc2)N1

Assay by compound,9,10,11,12,13,14,15,16
CSC inhib,·,-12,-10,-7,10,-11,-22,-6
PABP FP inh,·,-8,-6,5,-6,4,·,12
eIF4H FP inh,·,-9,-3,4,-9,-2,·,10
MT1-MMP act inh,1,-1,0,0,-7,3,0,-11
MT1-MMP act inh RFP,3,-3,-6,3,-6,0,4,5
Yeast UUG start,9&16,·,-3,-18,-11,·,-16,-13
HIV Env fusion,-17[16.7 µM],·,·,0,13,-6,25,·
Rce1 inh,·,i,·,i,i,i,·,i

17) S=C(NN=Cc1ccccn1)Nc1ccccn1
18) CCOC(=O)c1sc2nc(C)c([N+](=O)[O-])c(COC)c2c1N
19) O=C(CSCc1ccc([N+](=O)[O-])cc1)NCCSCc1ccccc1
20) O=C(c1ccc([N+](=O)[O-])cc1)n1nc(-c2ccccc2)nc1NCc1ccc(F)cc1
21) Cc1ccc(CNc2nc(-c3cccs3)nc3ccccc23)cc1
22) CCOC(=O)C1CCCN(C(=O)c2[nH]c(C(F)(F)F)nc2-c2ccccc2)C1 (stereo not given)
23) CC(=O)c1cccc(N(CC(=O)O)S(C)(=O)=O)c1
24) Cc1cc(Nc2cc(C)on2)n2ncnc2n1

Assay by compound,17,18,19,20,21,22,23,24
CSC inhib,·,-11,-8,5,92*,·,-19,6
PABP FP inh,·,-6,-1,4,2,·,23,12
eIF4H FP inh,·,5,-8,0,0,·,6,3
MT1-MMP act inh,16,1,2,7,7,6,0,2
MT1-MMP act inh RFP,-2,4,-1,6,-4,2,7,0
Yeast UUG start,-70,-23,-10,-26,-26,-15,-10,-5
HIV Env fusion,-67,3,·,4,-14,0,·,16
Rce1 inh,·,i,i,i,i,·,i,i

25) FC(F)(F)c1cnc(-c2cnc(-c3ccccn3)nc2)c(Cl)c1
26) CN(C)c1ccc(/C=N/OC(=O)Nc2ccccc2Cl)cc1
27) CCNC(=O)C(=O)NCC1OCCCN1S(=O)(=O)c1cccs1 (stereo not given)
28) COc1cc(C=O)ccc1OCc1ccccc1Br
29) Cn1c(-c2ccc(F)cc2)cnc1NCc1ccc(F)cc1F
30) COc1cc(OC)c2ccc(=O)oc2c1C(CCN1CCCC(C)C1)c1ccc2c(c1)OCO2 (stereo not given)
31) COc1ccc(CCN(C)C(=O)C2CCCN(C3CCN(Cc4ccccc4)CC3)C2)cc1OC (stereo not given)
32) Fc1ccc(Nc2nnc(C(F)(F)F)s2)cc1

Assay by compound,25,26,27,28,29,30,31,32
CSC inhib,-3,2,12,-8,·,3,-4,3
PABP FP inh,-3,-18,-9,-4,2,-2,1,-1
eIF4H FP inh,-16,-6,-3,-3,-6,-12,1,4
MT1-MMP act inh,3,-8,0,3,2,2,2,0
MT1-MMP act inh RFP,-2,-6,4,4,3,1,1,-1
Yeast UUG start,-50,-11,-18,·,-22,-6,-9,·
HIV Env fusion,-20,-8,-5,-72,-26,-50,11,-1
Rce1 inh,i,i,i,i,i,i,i,·

33) CCCCCCn1cnc2c(c1=O)c1nc3ccccc3nc1n2/N=C/c1ccco1
34) CCc1ccc(C(O)(CC)C(CN2CCOCC2)c2ccccc2)cc1 (stereo not given)
35) Cc1ccccc1N=C/C=C1/C=C(c2ccccc2)OC(C)(C)O1
36) CC1(C(=O)Nc2cccc(C#N)c2)CCN1C(=O)C1(c2ccccc2)CC1 (stereo not given)
37) COc1cc(/C=C/C(=O)OC2CC3CCC2(C)C3(C)C)ccc1O (stereo not given)
38) CN(C)C(=S)Nc1ccc(Cl)cc1
39) CCC(=O)NC(Nc1sc2c(c1C(=O)OC)CCN(C)C2)(C(F)(F)F)C(F)(F)F
40) O=C(Nc1cccc(Cl)c1)Nc1ccon1

Assay by compound,33,34,35,36,37,38,39,40
CSC inhib,·,0,·,·,-7,-2,-8,-21
PABP FP inh,8,-9,0,·,-2,6,-3,-5
eIF4H FP inh,16,-6,4,·,-5,11,5,4
MT1-MMP act inh,7,-8,-10,2,1,1,-4,5
MT1-MMP act inh RFP,2,-7,6,3,-3,3,-2,0
Yeast UUG start,-11,5,-16,-3,-14,-26,-22,8
HIV Env fusion,·,33,·,13,·,2,-35,0
Rce1 inh,i,i,i,·,i,i,·,i

41) O=C(CSc1nc2ccccc2c(=O)n1-c1cccc(C(F)(F)F)c1)NC1CC1
42) OCCC1CN(Cc2nc3c(s2)CCCC3)CCN1Cc1ccsc1 (stereo not given)
43) Cc1cccc(OCc2nnc(SCC(=O)c3cccs3)n2C)c1C
44) Cc1c(C(=O)NCCN(C)C)oc2ccc(S(=O)(=O)N3CCC4(CC3)OCCO4)cc12
45) Cc1ccc(Cl)cc1N1CCN(C(=O)C2CCC(=O)N(C3CCCCCC3)C2)CC1 (stereo not given)
46) COc1ccc(C(CNC(=O)CCNS(=O)(=O)c2ccccc2)N2CCOCC2)cc1 (stereo not given)
47) O=C(C1CCCCC1)N(CCN1CCCC1)c1nc2ccccc2s1
48) C[C@H](CO)N1C[C@H](C)[C@H](CN(C)S(C)(=O)=O)OCc2ccccc2-c2c(n(C)c3ccccc23)C1=O

Assay by compound,41,42,43,44,45,46,47,48
CSC inhib,-12,-7,·,-4,6,·,·,·
PABP FP inh,-1,-2,-3,11,12,·,3,·
eIF4H FP inh,8,15,-7,-2,-4,·,8,·
MT1-MMP act inh,-1,-1,11,-1,7,-2,-1,8
MT1-MMP act inh RFP,-2,2,-4,3,-29,2,3,2
Yeast UUG start,-22,·,0,9,14,-15,·,-17
HIV Env fusion,-12,-16,·,10,11,-19,·,19[16.7 µM]
Rce1 inh,i,i,i,i,i,·,i,·

49) O=C(COc1ccc(Cl)cc1)NCCS(=O)(=O)N1CCN(c2ccc(F)cc2)CC1
50) CC(C)(O)C(=O)N=Nc1c(O)[nH]c2ccccc12
51) O=C(c1ccco1)N1CCN(C(=O)c2ccc(-c3ccc(Cl)cc3)o2)CC1
52) CCOC(=O)N1CCN(Cc2nc3c(c(=O)n(C)c(=O)n3C)n2Cc2ccc(F)cc2)CC1
53) CCOC(=O)/C=c1\s/c(=C\c2ccc3c(c2)OCCO3)c(=O)n1CC(=O)NCC1CCCO1 (stereo not given)
54) Fc1ccc(-c2cnn3c(-c4cccs4)ccnc23)cc1
55) O=C(NC12CC3CC(CC(C3)C1)C2)C12CC3CC(C1)CC(n1cnc(Cl)n1)(C3)C2
56) CC(=O)Nc1ccc(C(=O)OCC(=O)N(c2ccccc2)C2CCS(=O)(=O)C2)cc1 (stereo not given)

Assay by compound,49,50,51,52,53,54,55,56
CSC inhib,-5,-14,·,1,0,·,-9,·
PABP FP inh,-1,-6,·,-20,-13,-3,-1,·
eIF4H FP inh,-2,-1,·,-10,-7,49,2,·
MT1-MMP act inh,11,3,0,-1,-5,-22,3,6
MT1-MMP act inh RFP,-4,1,-6,5,-1,0,-4,6
Yeast UUG start,-14,·,9,-2,54,·,-24,5
HIV Env fusion,7,-5,-9,-27,·,-172,·,-2
Rce1 inh,i,i,·,i,i,i,i,·

Entries of single compounds, quoted from the list. Screens in order: CSC inhib	PABP FP inh	eIF4H FP inh	MT1-MMP act inh	MT1-MMP act inh RFP	Yeast UUG start	HIV Env fusion	Rce1 inh
Shown for CC(=O)Nc1ccc(C(=O)OCC(=O)N(c2ccccc2)C2CCS(=O)(=O)C2)cc1 (stereo not given) : ·	·	·	6	6	5	-2	·
Shown for O=C(c1ccco1)N1CCN(C(=O)c2ccc(-c3ccc(Cl)cc3)o2)CC1 : ·	·	·	0	-6	9	-9	·

(more compounds)
57) CC(C)C(=O)Nc1ccccc1C(=O)OCC(=O)c1ccc2c(c1)OCCO2
58) COc1ccc(CN2C(=NC(=O)C3CC3)SC3CS(=O)(=O)CC32)cc1 (stereo not given)
59) COc1ccc(-n2cnnc2SCC(=O)NC2CCCCC2)cc1
60) CSc1ccccc1C(=O)NC1CCCC1
61) CS(=O)(=O)c1nc(S(=O)(=O)c2ccc(Cl)cc2)c(NCCCN2CCOCC2)s1
62) O=C(c1cnn2c(C(F)(F)F)cc(-c3ccco3)nc12)N1CCCCCC1

Assay by compound,57,58,59,60,61,62
CSC inhib,0,-2,3,·,-22,-1
PABP FP inh,1,-10,·,-5,-5,-6
eIF4H FP inh,-15,7,·,-1,-5,1
MT1-MMP act inh,-2,-1,2,1,2,2
MT1-MMP act inh RFP,1,0,2,0,5,-3
Yeast UUG start,·,-31,-9,-4,-7,2
HIV Env fusion,·,-1,5,·,7,·
Rce1 inh,i,i,·,i,i,i

Grouped by structure, the compounds so far containing two or more sulfur atoms (eight)
3) c1ccc(OCCSc2nnc3sc4ccccc4n23)cc1
12) CCc1nnc(NS(=O)(=O)c2ccc(NC(=S)NC(=O)c3ccc(OC)cc3)cc2)s1
19) O=C(CSCc1ccc([N+](=O)[O-])cc1)NCCSCc1ccccc1
27) CCNC(=O)C(=O)NCC1OCCCN1S(=O)(=O)c1cccs1 (stereo not given)
42) OCCC1CN(Cc2nc3c(s2)CCCC3)CCN1Cc1ccsc1 (stereo not given)
43) Cc1cccc(OCc2nnc(SCC(=O)c3cccs3)n2C)c1C
58) COc1ccc(CN2C(=NC(=O)C3CC3)SC3CS(=O)(=O)CC32)cc1 (stereo not given)
61) CS(=O)(=O)c1nc(S(=O)(=O)c2ccc(Cl)cc2)c(NCCCN2CCOCC2)s1

Assay by compound,3,12,19,27,42,43,58,61
CSC inhib,·,-7,-8,12,-7,·,-2,-22
PABP FP inh,2,5,-1,-9,-2,-3,-10,-5
eIF4H FP inh,1,4,-8,-3,15,-7,7,-5
MT1-MMP act inh,0,0,2,0,-1,11,-1,2
MT1-MMP act inh RFP,-2,3,-1,4,2,-4,0,5
Yeast UUG start,-70,-18,-10,-18,·,0,-31,-7
HIV Env fusion,·,0,·,-5,-16,·,-1,7
Rce1 inh,i,i,i,i,i,i,i,i
